gsp antag – antagonists of gsp mutant (McCune-Albright syndrome). gsp-mutant cells, cAMP HTRF, 30 min; control for the full effect not named in the record. Potency, µM (doses to about 76.9 µM), for inactives: at the highest dose activity change, negative = inhibition, actives largely listed as inhibitors. 0.4% of 340,000 active; active = falling curve of any shape with a large fitted effect; inconclusive = falling curve, mostly with a smaller effect; inactive = flat or rising curve; cell line not stated here;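 note: intracellular cAMP measured with PDE inhibitor Ro 20-1724 present during compound exposure; potency is the fitted concentration of half-maximal effect; % is set by controls: 0 for no effect and ±100 for the full control effect; nearly all actives have a fitted effect of over 65% in size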
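Measurement of cellular cAMP by homogeneous time-resolved fluorescence following a 30 min compound exposure at 37C. The PDE inhibitor […] was present throughout; the assay buffer was DPBS with 0.05% BSA and 0.005% Tween 20.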
Menin-MLL FL inh – displaces fluorescein MLL peptide from human menin. Fluorescence polarization, fluorescein-MLL peptide displacement from menin. FP activity change, % at 61.4 µM. 290,000 tested, under 10 active; inconclusive = falling polarisation curve, or a change in total fluorescence; inactive = total fluorescence flat and polarisation flat or rising; no compound was filed as active; the % refers to the polarisation; negative = inhibition;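 note: % of control where 0% means no effect; inhibitors lower the polarisation; unlabelled MLL peptide was the positive control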
gsp ag – agonists of gsp mutant (McCune-Albright syndrome); gsp mutant cells, cAMP HTRF, 30 min; control for the full effect not named in the record; 0.13% of 340,000 active; Potency, µM (top dose mostly 76.9 µM), for inactives: top-dose activation (cAMP increase), hits mostly activators; active = well fitted activation curve with a large enough effect; inconclusive = small, poorly fitted or top-dose-only effect, or another doubt; inactive = no such curve, though single readings can be large or run the other way; cell line not stated here;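 note: phosphodiesterase inhibitor Ro 20-1724 added with compounds to block cAMP breakdown; potency is the fitted concentration of half-maximal effect; nearly all actives have a fitted effect of over 60% in size; about a fifth of the inactives were tested at one dose only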
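Cells stably selected in G418 were plated at 2000/well, grown 16-24 hr, then given compounds in DMSO with the PDE inhibitor […] (300 uM solution added) for 30 min at 37C; cAMP was read by HTRF.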
TRPML1 blocker – inhibitors of human TRPML1 channel | Q9GZU1 | TRPML1-inducible cells, Ca2+ dye fluorescence, FDSS; active compounds read low; inhibition of EC80 agonist-evoked calcium signal | activity change, negative = inhibition, % (no concentration beside the values) | 0.02% of 390,000 active; in the data active means activity change below about -50%; inconclusive means about -30% to -50%; inactive means above about -30%;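 note: stimulus is agonist 54-4 at its EC80 concentration; % is set by controls: 0 for no effect and ±100 for the full control effect; compound concentration not given in the record; the text of the record puts the active cut at -80%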
Target sequence (Q9GZU1 whole entry, looked up): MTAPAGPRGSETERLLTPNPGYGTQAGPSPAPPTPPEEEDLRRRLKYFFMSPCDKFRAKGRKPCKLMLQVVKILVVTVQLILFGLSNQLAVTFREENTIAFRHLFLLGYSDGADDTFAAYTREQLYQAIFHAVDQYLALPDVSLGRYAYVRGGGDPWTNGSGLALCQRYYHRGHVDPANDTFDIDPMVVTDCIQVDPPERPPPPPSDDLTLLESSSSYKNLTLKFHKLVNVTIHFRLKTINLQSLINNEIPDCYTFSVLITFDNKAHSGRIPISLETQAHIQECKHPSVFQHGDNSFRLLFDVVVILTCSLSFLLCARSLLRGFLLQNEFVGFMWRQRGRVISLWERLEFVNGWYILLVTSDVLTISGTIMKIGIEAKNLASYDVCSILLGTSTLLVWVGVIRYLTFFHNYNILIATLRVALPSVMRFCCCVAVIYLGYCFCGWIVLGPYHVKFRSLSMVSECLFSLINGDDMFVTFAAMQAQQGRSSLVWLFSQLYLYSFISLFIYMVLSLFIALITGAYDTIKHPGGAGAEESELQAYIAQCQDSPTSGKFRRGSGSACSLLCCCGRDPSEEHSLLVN
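TRPML1-DL cells, Tet-induced overnight (~16 h, 37 °C) at 1,500 cells/well, were loaded with Ca8 no-wash dye plus quencher for 45-90 min at room temperature. Compounds were pinned during FDSS kinetic reading; agonist 54-4 at EC80 (4 uM final) then added.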
ClpP mod – qHTS Assay for Activators of ClpP; ATP-dependent Clp protease proteolytic subunit (Bacillus subtilis (strain 168)), P80244; purified B. subtilis ClpP, FRET peptide cleavage, 20 min; AID 651965, 2013; 1.9% of 340,000 active; Potency, µM (titrated, usually from 57.5 µM), without a hit: top-dose activity change, negative = active; active = well fitted falling curve with a large enough effect; inconclusive = small, poorly fitted or top-dose-only effect; inactive = no such curve, though single readings can be large or run the other way; note: potency is the fitted concentration of half-maximal effect; the source files actives as falling curves though it sought activators and does not explain the sign; nearly all actives have a fitted effect of over 65% in size; many hits overshoot -100%
Target sequence (P80244 whole entry, looked up): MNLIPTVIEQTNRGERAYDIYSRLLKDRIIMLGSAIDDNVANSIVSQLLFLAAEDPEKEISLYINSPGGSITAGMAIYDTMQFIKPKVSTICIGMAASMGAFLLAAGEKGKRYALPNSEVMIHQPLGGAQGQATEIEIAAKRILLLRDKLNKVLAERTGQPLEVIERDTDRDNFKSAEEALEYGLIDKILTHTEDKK
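Purified B. subtilis ClpP, 10 microg/mL final in Tris/HCl pH8 with KCl, BSA, glycerol and Tween-20, cleaved an Abz/nitrotyrosine-quenched decapeptide. Fluorescence (ex 320, em 430) was read at 0 and 20 min at room temperature. Delta was normalized to 5.8 microM ADEP and DMSO/no-enzyme controls.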
TRPML1 ag – human mucolipin-1 channel agonism. activation, % (concentration not given with the values). Q9GZU1. 0.12% of 410,000 active. AID 624414. TRPML1-expressing cells, Ca2+ dye fluorescence, FDSS; host cell line not named in the record; reference of the full effect not given here; in the data active = activation above about 50%; inconclusive = about 30% to 50%; inactive = below about 30%; note: 0% is about no effect; the text of the record puts the active cut at 80%
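Tet-induced TRPML1-DL cells, 1,500 per well, cultured overnight, were loaded with a no-wash Ca2+ dye for 45–90 min. Calcium fluorescence was recorded on the FDSS for 110 s after compound addition, before the EC80 agonist (4 uM 54-4) was added.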
An asterisk follows results filed as active; ? = inconclusive; / = not tested or not shown; & = joins results of further samples; [ ] = another dose, or the depositor's remark.

SMILES	gsp antag	Menin-MLL FL inh	gsp ag	TRPML1 blocker	ClpP mod	TRPML1 ag
CCC1CCCCN1Cc1nc2c(c(=O)n(C)c(=O)n2C)n1Cc1ccccc1 (configuration not stated)	6%	3.3	2%	6	0.4%	0.3
CC(C)OCCCN(Cc1ccco1)C(=O)c1cc2c(s1)-c1ccccc1OC2	/	/	/	16	4.7%	2.8
O=c1oc2c(CN3CCOCC3)c(O)ccc2cc1-c1ccccc1	/	/	/	-1	3.9%	0.8
O=C(CSc1nnc(-c2cccnc2)o1)OC1CCCCC1	-10%	0.8	-7%	2	-4.3%	-0.3
COc1ccc(S(=O)(=O)Oc2ccc3c(c2)O/C(=C\c2cccnc2)C3=O)cc1	-4%	-0.3	?	3	-1.9%	0.5
CCc1nn(CC(=O)NCCCN2CCN(C)CC2)c(=O)c2cc3sc(C)cc3n12	0%	/	0%	14	-14%	0.1
CC1CCCCC1NC(=O)c1cn(C)c2ccc(S(=O)(=O)N3CCOCC3)cc2c1=O (configuration not stated)	-14%	2.8	-34%[inhibitor]	-4	-2.0%	-0.3
CCc1ccc(NC(=O)Cn2nnc(C(=O)NCc3ccc(C)cc3)c2N)cc1	/	/	/	-7	-5.1%	1.6
Cc1coc2c1c(C)cc1oc(=O)c(CC(=O)NCCCN3CCCC3=O)c(C)c12	-13%	-1.2	/	/	4.3%	/
NCCS	1%	-0.3&-0.7&6.1	/	6	-0.3%	0.1
COCCn1c(SCc2ccc(C(=O)OC)o2)nnc1-c1c[nH]c2ccccc12	-1%	0.3	-6%	4	1.4%	-0.1
Cc1ccc(Oc2cc(N3CCOCC3)nc(-c3ccccc3)n2)cc1	3%	16	-38%[inhibitor]	-22	-0.9%	-0.7
COc1ccc(CNc2cccc(C)n2)c(O)c1	10%	2.4	4%	11	/	-0.4
C#Cc1ccc([C@@H]2C=C(C(=O)NCc3ccccc3)O[C@H](OCCCCO)C2)cc1	-8%	/	/	0	1.2%	-1.0
CN(C)CCNC(=S)Nc1ccc(F)c(F)c1F	6%	1.7	-5%[15.4 µM]	-10	-1.1%	-0.3
N#CC1=C(N)C(C#N)(C#N)C(c2cccnc2)C2CC(c3ccccc3)CC=C12 (configuration not stated)	2%	?	21%	8	83%	2.8
O=C(Nc1cccc(-n2cccn2)c1)C1CCCN(Cc2cc3ccccc3[nH]2)C1 (configuration not stated)	8%	4.1	-13%	1	0.8%	-0.3
Cc1cc2ccccn2c1C(=O)c1nc(NCc2ccccc2)ncc1Cl	-7%	-1.3	4%	-10	0.1%&-1.1%	1.0&0.2
COC(=O)c1c(NC(=O)C2COc3ccccc3O2)sc2c1CCN(Cc1ccccc1)C2 (configuration not stated)	3%	13	?	6	20µM*	0.3
Cc1nc(NC(=O)c2csc3ccccc23)sc1C	-20%	0.0	?	6	0.9%	-0.7
COC(=O)C1=C(C)Nc2[nH]c(=S)[nH]c(=O)c2C1c1ccc(O)cc1 (configuration not stated)	-8%	6.3	?	19	-1.8%	-0.2
C[C@H](C(=O)OCO/N=[N+](\[O-])N1CCCC1)c1cccc2ccccc12	/	-1.3	/	15	/	0.8
O=C(NCCCn1ccnc1)c1cc(-c2ccncc2)nc2ccccc12	8%	-1.9	14%[15.4 µM]	-21	/	0.5
COc1ccccc1N(C(=O)c1ccncc1)c1nc(-c2ccc([N+](=O)[O-])cc2)cs1	-28%	9.3	2%[15.4 µM]	9	/	0.2
O=C(NCCOc1nc(N2CCOCC2)nc(N2CCOCC2)n1)Nc1ccccc1	8%	-3.1	0%	-1	-1.9%	-0.1
Cc1cccc(OP(=O)(Nc2c(C)n(C)n(-c3ccccc3)c2=O)Oc2cccc(C)c2)c1	-12%	2.0	15%	-14	-0.8%	4.2
O=C(NNC(=O)c1ccncc1)Nc1ccc(N=Nc2ccccc2)cc1	-1%	/	-50%	0	-1.3%	0.4
C=CCn1c(C)cc(C(=O)COC(=O)/C=C/c2c(C)nn(C3CCS(=O)(=O)C3)c2Cl)c1C (configuration not stated)	-16%	/	-6%	8	-1.4%	0.2
CCCCN1C[C@H](C)[C@@H](CC(=O)Nc2ccccc2)C1=O	/	/	?	-13	0.9%	-0.5
CCCOc1ccc(-c2cccc(NS(=O)(=O)c3ccc(CC)cc3)c2)nn1	/	/	/	48	-0.7%	1.5
COc1ccc(Cc2nc3ccc(C(=O)N4CCN(C)C(C)C4)cc3o2)cc1OC (configuration not stated)	-3%	-8.7	-19%	22	/	0.6
Cc1ccc(N2C(=O)c3sc4nnc(C)c(=O)n4c3C2=O)cc1	-1%	1.6	-39%[inhibitor]	8	-0.4%	2.5
CCCCNC(=O)CN1C(=O)NC(Cc2ccccc2)(Cc2ccccc2)C1=O	-1%	-5.0	15%	-8	/	1.3
CC(=O)c1ccc(S(=O)(=O)N(C)CCCC(=O)N(C)Cc2c(F)cccc2Cl)cc1	-18%	-0.9	-6%[15.4 µM]	26	/	0.9
CC1(C)CC2CC(C)(CN2C(=S)Nc2ccccc2F)C1 (configuration not stated)	5%	0.0	-33%[inhibitor]	9	/	0.5
S=C(NCCCN1CCOCC1)Nc1ccc(-c2nc3ccccc3[nH]2)cc1	-15%	-0.9	11%[15.4 µM]	-14	0.9%	-0.4
Cc1cc(C)n2ncc(C(=O)NCCc3ccccc3)c2n1	20%	1.9	18%	39	28µM*	0.5
COC(=O)c1ccc[n+](CC(=O)Nc2ccc(OC(F)F)cc2)c1	/	9.5	3%[15.4 µM]	10	/	1.0
Cc1cnc(NC(=O)CSc2nnc(COc3ccccc3)o2)s1	?	-0.2	-16%[15.4 µM]	5	/	0.0
COc1ccc(-c2nc3c(c(SCC(=O)Nc4ccccc4F)n2)Cc2cc(C)ccc2O3)cc1	/	/	/	-18	-0.1%	-0.6
O=C(O)c1cc(O)ccc1NC(=O)C1CCCO1 (configuration not stated)	-6%	2.0	-45%[inhibitor]	1	4.0%	1.1
BrC(=C\c1ccccc1)/C=N/N1CCN(c2ccccc2)CC1	-6%	-7.5	-20%[15.4 µM]	0	/	1.2
O=C(Nc1cccc(C(=O)NC2CC2)c1)c1ccc(F)c(S(=O)(=O)N2CCOCC2)c1	-5%	/	0%[15.4 µM]	6	-1.5%	1.0
COc1ccc(N=Cc2c(O)[nH]c3ccccc23)cc1OC	-22%	4.5	-58%[inhibitor]	10	-1.6%	-0.2
Cc1[nH]c2ccccc2c1/C=N/Nc1ccc([N+](=O)[O-])cc1S(=O)(=O)Nc1ccc(Cl)cc1	14%	14	0%	-15	0.5%	4.2
COc1cc([N+](=O)[O-])ccc1NC(=O)CC(C)C	-3%	-0.8	17%	14	-0.6%	0.2
CCN(CC(=O)Nc1ccc(NC(C)=O)cc1)C(=O)CSCc1c(C)noc1C	13%	/	0%	23	1.1%	-0.9
CC1=C(C(=O)Nc2ccccc2C)C2(CCCCC2)C(C(N)=O)C(=S)N1 (configuration not stated)	0%	1.7	-14%	-5	0.0%	0.2
O=C(c1ccco1)n1nc(-c2ccco2)nc1SCc1ccccc1	14%	-1.4	45%	12	16%	-1.0
CCOc1ccc(Nc2c(S(=O)(=O)c3ccccc3)cnc3ccc(F)cc23)cc1	/	/	/	3	-2.6%	8.2

More compounds follow:
SMILES	gsp antag	Menin-MLL FL inh	gsp ag	TRPML1 blocker	ClpP mod	TRPML1 ag
COc1ccc(/C=C2\SC(=O)N(CC(=O)Nc3ccc(O)cc3)C2=O)cc1OC	-4%	-3.8	?	22	/	0.1
C(=C\c1cccc2ccccc12)/c1nnc(-c2cccs2)o1	-10%	-1.1	20%	64	28µM*	2.5
Cc1cc(C)cc(C(=O)NCC(=O)OCC(=O)c2c(N)n(C)c(=O)n(C)c2=O)c1	11%	/	15%	-5	0.0%	1.7
CCOC(=O)c1cccc(NC(=O)C2(S(=O)(=O)c3ccc(Cl)cc3)CC2)c1	-35%	0.2	-1%[15.4 µM]	-9	-1.4%	1.3
O=C1C=CN(C2OC(CO)C(O)C2O)C(=O)C1 (configuration not stated)	/	/	13%	-3	0.2%	-0.5
CC1(C)CC(=O)C2=C(C1)N(c1ccc(Cl)cc1)C(=O)C2(O)C(F)(F)F (configuration not stated)	-13%	6.8	-45%[inhibitor]	19	2.6%	0.2
CC(C)N1CCC(=NNC(=O)c2cccs2)CC1	4%	/	-7%	7	1.5%	2.1
Cc1ccc(Nc2c3c(nc4nncn24)CCC3)c(C)c1	/	/	/	-10	-0.8%	-0.5
Cc1ccc(C)c(N2CCN(C(=O)CCc3nc(-c4ccc(F)cc4)no3)CC2)c1	-7%	/	/	6	-1.3%	0.4
CCOc1ccc(-c2cc3c(=O)n(CC(=O)Nc4cc(F)ccc4C)ccn3n2)cc1	/	/	/	-8	-8.6%	0.4
COc1ccc(-n2nc(C(=O)NCC(=O)NC(C)C)c3ccccc3c2=O)cc1OC	-7%	-9.8	20%	5	-2.7%	0.8
CC#CC[N+](C)(C)CCCCCCCCCC	8%	-3.9	-3%	18	/	-0.3
CCOc1ccccc1NC(=O)CSc1nnc(-c2ccccn2)n1Cc1ccco1	-8%	0.3	-23%	20	-3.7%	3.0
CC1=C(C(=O)OCc2ccccc2)C(c2ccc(-c3ccccc3)cc2)NC(=O)N1CCCCCC(=O)O (configuration not stated)	-20%	-1.4	/	-12	0.2%	-0.2
CC12CC3CC(C)(C1)CC(C(=O)N1CCN(C(=O)c4ccco4)CC1)(C3)C2	-4%	/	-15%[15.4 µM]	-9	/	-0.1
CC(C)c1ccc(C(=O)NCCCN(C)C)cc1	10%	5.4	1%	-24	-3.1%	0.0
COCCn1c(SCCCc2ccccc2)nc2c1c(=O)[nH]c(=O)n2C	-4%	4.7	?	13	-3.0%	3.2
COC(=O)c1ccccc1NC(=O)CSc1nnc(C(CO)NC(=O)c2ccccc2)n1C (configuration not stated)	-7%	3.0	-3%	2	-10%	-0.1
N#C/C(=C\c1ccc(O)cc1)C(=O)N1CCCC1	-15%	4.3	-16%	/	-3.1%	/
S=C1Cc2ccccc2C(c2ccc(Cl)cc2)N1 (configuration not stated)	-7%	4.2	17%	-28	/	1.3
CCc1nnc(NC(=O)CSc2nnc(-c3ccccc3O)n2-c2ccc(C)cc2C)s1	-8%	-1.5	12%	23	-7.1%	3.3
COCCCNC(=O)CCCn1c(=O)c2cccn2c2ccccc21	/	/	/	-22	-9.3%	1.0

Screening results (PubChem)
